# YB-1 expression: inhibitors of YB-1 gene expression, primary screen, cell-based, fluorescence | U2OS, qRT-PCR YB-1 vs CDIP delta delta Cp, 16 h; active compounds read high; zero = DMSO, each unit about twofold | delta delta Cp (YB-1 minus CDIP) (concentration not given with the values) | actives 0.37% (n = 30,000);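 active means delta delta Cp rounded down to an integer at or above 3, about 3 SD of DMSO wells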;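 further: higher means less YB-1 transcript or more CDIP transcript relative to DMSO; stock transfer was 100 nL into about 100 µL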
# Hedgehog inh: Hedgehog pathway signaling inhibitors, primary screen, luminescence, Shh-LIGHT2 cells, Gli-luciferase; Shh-LIGHT2 Gli-luciferase reporter, 30 h; inhibition, % (no concentration beside the values); actives 2.1% (n = 22,000); AID 2313, 2010;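 active means replicate mean of 65% or more; inconclusive means mean lower but half the replicates past it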;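 further: pathway switched on by Shh-conditioned medium diluted 1 in 25 in low serum; 100 nL library stock added to about 40 µL; 0% = median of neutral wells and 100% = positive control level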
# MITF inh: inhibitors of MITF, primary screen, MITF inhibitor project, cell-based, luminescence | TRPM1 promoter luciferase, 24 h | actives 0.28% (n = 37,000) | AID 2240, 2010 | inhibition, % (no concentration beside the values);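 active means most replicates at 85% or more, or half of them and the mean; inconclusive means half reach 85% but not the mean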;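 further: human melanocyte line stably carrying TRPM1 promoter luciferase reporter; 0% = vehicle wells and 100% = a positive control; the first replicate is given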
# PD-1 reverse act: activators reversing PD-1 mediated T-cell inhibition, primary screen, luminescence, primary human CD4 T cells, PD-L1 beads | CellTiter-Glo 96 h | activation, % (test concentration not listed) | 29,000 tested, under 10 active;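 active means replicate mean of 50% or more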;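 further: 0% = median vehicle wells and 100% = positive control; 100 nL library stock added to about 50 µL; numbers are from one replicate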
# The depositor's hits bear a star; ? = inconclusive; nt = not tested or not shown. The list is partial; count on the stated rates, not on these rows.
# Preview:
SMILES,YB-1 expression,Hedgehog inh,MITF inh,PD-1 reverse act
C[C@@H]1CN([C@@H](C)CO)C(=O)c2cc(N(C)C)ccc2O[C@@H]1CN(C)Cc1ccc2c(c1)OCO2,0.42,3,8,1.6
O=C(Nc1ccc(F)cc1)c1cnccc1C(F)(F)F,-0.064,-47,-2,0.8

# All compounds of this part, previewed entries included:
SMILES,YB-1 expression,Hedgehog inh,MITF inh,PD-1 reverse act
C[C@@H]1CN([C@@H](C)CO)C(=O)c2cc(N(C)C)ccc2O[C@@H]1CN(C)Cc1ccc2c(c1)OCO2,0.42,3,8,1.6
O=C(Nc1ccc(F)cc1)c1cnccc1C(F)(F)F,-0.064,-47,-2,0.8
C[C@@H]1CN([C@H](C)CO)C(=O)c2cc(NS(=O)(=O)c3ccc(Cl)cc3)ccc2O[C@@H]1CN(C)Cc1ccncc1,0.071,13,3,nt
COc1ccc(CN(C)C[C@H]2OCCCC[C@@H](C)Oc3ccc(NC(=O)C4CCCCC4)cc3C(=O)N([C@H](C)CO)C[C@@H]2C)cc1,0.35,?,-3,-2.9
C[C@H]1CN([C@@H](C)CO)C(=O)Cc2cc(NC(=O)Nc3cccc4ccccc34)ccc2O[C@@H]1CN(C)CC1CCCCC1,0.25,-21,26,-0.2
C[C@H]1CN([C@@H](C)CO)C(=O)c2cc(NC(=O)Nc3ccccc3)ccc2O[C@H]1CN(C)S(=O)(=O)c1ccc(F)cc1,-0.35,nt,-10,2.9
COc1ccc(CN(C)C[C@H]2Oc3ccc(NS(=O)(=O)c4cn(C)cn4)cc3C(=O)N([C@H](C)CO)C[C@H]2C)cc1,-0.13,-65,-6,nt
CC(C)(C)C(=O)CC(Nc1ccccc1)c1ccc(Cl)cc1 (stereo not drawn),0.19,nt,-7,1.5
C[C@@H]1CN([C@H](C)CO)C(=O)c2cccc(NC(=O)Nc3ccccc3)c2O[C@H]1CN(C)Cc1ccc(C(=O)Nc2ccccc2N)cc1,-0.0013,nt,9,-3.5
C[C@H](CO)N1C[C@H](C)[C@H](CN(C)Cc2ccc(-c3ccccc3)cc2)Oc2ccc(NC(=O)CCN3CCOCC3)cc2C1=O,0.14,29,-16,0.0
COC(=O)c1ccccc1NC(=O)c1nc2ncccn2n1,nt,nt,11,1.0
COc1ccc(S(=O)(=O)Nc2ccc3c(c2)C(=O)N([C@@H](C)CO)C[C@@H](C)[C@H](CN(C)S(=O)(=O)c2ccccc2)O3)cc1,0.28,nt,5,-0.8
COc1ccc(NC(=O)Nc2cccc3c2O[C@H](CN(C)Cc2ccc(Cl)c(Cl)c2)[C@@H](C)CN([C@@H](C)CO)C3=O)cc1,-0.2,4,2,nt
COc1ccccc1NC(=O)CSc1nccc(=O)[nH]1,nt,nt,10,1.6
CCOC(=O)c1c(NC(=S)N(C)Cc2c(C)nn(C)c2C)sc2c1CCCCCC2,nt,nt,16,-2.0
C[C@H]1CN([C@@H](C)CO)C(=O)c2cc(NC(=O)Nc3cccc4ccccc34)ccc2O[C@@H]1CN(C)Cc1ccc(Cl)c(Cl)c1,0.067,0,25,-3.2
CC(C)(C)c1ccc(C(=O)N2CCN(c3ccc([N+](=O)[O-])c(NCc4cccnc4)c3)CC2)cc1,nt,nt,?,-4.2
CC(C)(CO)NC(=S)NCC1CCCO1 (stereo not drawn),-0.1,-27,-8,-5.4
OC1C=CC(O)C23OC12C(O)C=CC31Oc2cccc3cccc(c23)O1 (stereo not drawn),0.28,-19,-8,0.5
CS(=O)(=O)N(CC(=O)Nc1ccccc1C(F)(F)F)C1CCCCC1,nt,nt,2,1.4
C[C@@H]1CN([C@@H](C)CO)C(=O)c2cc(NS(=O)(=O)c3ccc(Cl)cc3)ccc2O[C@H]1CN(C)C(=O)Nc1ccc(F)cc1,-0.24,nt,0,1.1
O=C(CSc1ncnc2nc[nH]c12)N1CCOCC1,nt,nt,-1,1.5
O=C(CCn1cnc2ccccc2c1=O)Nc1ccc2c(c1)Cc1ccccc1-2,nt,nt,-25,1.6
Cc1noc(C)c1NC(=O)N(C)C[C@H]1Oc2ccc(NC(=O)Cc3ccccc3)cc2C(=O)N([C@H](C)CO)C[C@@H]1C,-0.22,12,3,0.6
COc1ccc(CN(C)C[C@H]2Oc3ccc(NC(=O)NC4CCCCC4)cc3C(=O)N([C@@H](C)CO)C[C@H]2C)cc1,0.13,9,-1,0.3

# A run of entries from the list above, for reference:
SMILES,YB-1 expression,Hedgehog inh,MITF inh,PD-1 reverse act
CC(C)(C)c1ccc(C(=O)N2CCN(c3ccc([N+](=O)[O-])c(NCc4cccnc4)c3)CC2)cc1,nt,nt,?,-4.2
CC(C)(CO)NC(=S)NCC1CCCO1 (stereo not drawn),-0.1,-27,-8,-5.4
OC1C=CC(O)C23OC12C(O)C=CC31Oc2cccc3cccc(c23)O1 (stereo not drawn),0.28,-19,-8,0.5
CS(=O)(=O)N(CC(=O)Nc1ccccc1C(F)(F)F)C1CCCCC1,nt,nt,2,1.4
C[C@@H]1CN([C@@H](C)CO)C(=O)c2cc(NS(=O)(=O)c3ccc(Cl)cc3)ccc2O[C@H]1CN(C)C(=O)Nc1ccc(F)cc1,-0.24,nt,0,1.1
O=C(CSc1ncnc2nc[nH]c12)N1CCOCC1,nt,nt,-1,1.5
O=C(CCn1cnc2ccccc2c1=O)Nc1ccc2c(c1)Cc1ccccc1-2,nt,nt,-25,1.6
Cc1noc(C)c1NC(=O)N(C)C[C@H]1Oc2ccc(NC(=O)Cc3ccccc3)cc2C(=O)N([C@H](C)CO)C[C@@H]1C,-0.22,12,3,0.6
COc1ccc(CN(C)C[C@H]2Oc3ccc(NC(=O)NC4CCCCC4)cc3C(=O)N([C@@H](C)CO)C[C@H]2C)cc1,0.13,9,-1,0.3

# Further results follow.
SMILES,YB-1 expression,Hedgehog inh,MITF inh,PD-1 reverse act
COc1c(CO)c(O)cc2c1C(=O)CCC2O (stereo not drawn),-0.027,-24,-7,0.6
O=C(CSc1nc2ccccc2o1)Nc1ccccn1,-0.33,-79,-45,-1.7
C[C@@H]1CN([C@H](C)CO)C(=O)c2cccc(NC(=O)C3CCOCC3)c2O[C@@H]1CN(C)Cc1ccccc1,-0.4,14,-1,0.1
CC(C)NC(=O)N(C)C[C@H]1Oc2c(NC(=O)Nc3ccc4c(c3)OCO4)cccc2C(=O)N([C@@H](C)CO)C[C@@H]1C,0.35,-25,-5,0.3
CC(C)C(OC(=O)c1ccccc1)c1nccc2ccccc12 (stereo not drawn),-0.36,-98,-45,-3.0
CC(C)NC(=O)Nc1ccc2c(c1)C(=O)N([C@@H](C)CO)C[C@H](C)[C@H](CN(C)C(=O)Nc1ccc(F)cc1)O2,0.025,-25,-6,0.7
COc1ccc(S(=O)(=O)N(C)C[C@H]2Oc3ccc(NS(C)(=O)=O)cc3CC(=O)N([C@H](C)CO)C[C@H]2C)cc1,0.046,-27,5,-1.3
Cc1nc2c(o1)N(c1ccccc1)C(N)=C(C#N)C2c1ccc(OC(C)C)cc1 (stereo not drawn),-0.22,10,-16,0.0
C[C@@H]1CN([C@H](C)CO)C(=O)c2cccc(NS(=O)(=O)c3ccc(Cl)cc3)c2O[C@H]1CN(C)S(=O)(=O)c1ccccc1,-0.049,0,-7,1.4
C[C@H](CO)N1C[C@H](C)[C@H](CN(C)Cc2ccc(Oc3ccccc3)cc2)Oc2ccc(NC(=O)Nc3ccc(C(F)(F)F)cc3)cc2CC1=O,0.36,-46,6,-4.3
O=C(NCc1ccco1)c1cc(-c2ccccc2)on1,nt,nt,-62,4.0
N#Cc1c(C(F)(F)F)cc(-c2cccs2)nc1Sc1ccccc1NC(=O)c1cccs1,0.76,nt,9,-1.0
COc1ccc(S(=O)(=O)N(C)C[C@@H]2OCCCC[C@@H](C)Oc3ccc(NC(=O)Nc4cccc5ccccc45)cc3C(=O)N([C@H](C)CO)C[C@@H]2C)cc1,-0.085,-13,0,1.6
C[C@H](CO)N1C[C@H](C)[C@H](CN(C)S(=O)(=O)c2ccc(Cl)cc2)Oc2ccc(NC(=O)NC3CCCCC3)cc2CC1=O,0.023,-10,26,nt
COc1ccc(C(=O)CSc2nc3nc(C)cc(C)c3c(=O)[nH]2)cc1OC,nt,nt,-6,2.1
CCN(CC)CC#CCOC(=O)C(O)(c1ccccc1)C1CCCCC1 (stereo not drawn),-0.39,27,-7,nt
C[C@@H]1CN([C@H](C)CO)C(=O)Cc2cc(NC(=O)C3CC3)ccc2O[C@H]1CN(C)S(=O)(=O)c1cn(C)cn1,0.073,-31,-4,nt
C[C@H]1CN([C@@H](C)CO)C(=O)c2cccc(NC(=O)CCCCCC(=O)Nc3ccccc3N)c2O[C@H]1CN(C)C(=O)Nc1ccc(F)cc1,-0.058,nt,7,0.1
CNC[C@H]1Oc2c(NS(=O)(=O)c3ccc(Cl)cc3)cccc2C(=O)N([C@H](C)CO)C[C@@H]1C,-0.22,51,-2,nt
C[C@@H]1CN([C@H](C)CO)C(=O)c2cccc(NC(=O)Nc3ccc4c(c3)OCO4)c2O[C@@H]1CN(C)Cc1ccc(-c2ccccc2)cc1,-0.32,19,-8,-2.1
CC(=O)NCCc1c[nH]c2ccc(O)cc12,-0.1,-37,-3,nt
C[C@H](CO)N1C[C@H](C)[C@H](CN(C)C(=O)NC2CCCCC2)Oc2ccc(NC(=O)Nc3ccc(F)cc3)cc2CC1=O,0.083,-3,-20,1.2
C[C@H]1CN([C@@H](C)CO)C(=O)c2cc(NC(=O)Cn3cnnn3)ccc2O[C@H]1CN(C)C(=O)Nc1cccc2ccccc12,0.43,-17,7,1.0
C[C@@H]1CN([C@H](C)CO)C(=O)c2cc(NC(=O)Cn3cnnn3)ccc2O[C@@H]1CN(C)Cc1ccc(C(=O)O)cc1,0.14,14,-7,nt
Cc1cccc(N(CC(=O)NC2CCCCCC2)S(C)(=O)=O)c1C,nt,nt,0,-0.1

# More entries
SMILES,YB-1 expression,Hedgehog inh,MITF inh,PD-1 reverse act
C[C@@H]1CN([C@@H](C)CO)C(=O)c2cc(NC(=O)Nc3ccc(F)cc3)ccc2O[C@@H]1CN(C)Cc1ccccc1,0.25,nt,8,nt
COc1ccc(NC(=O)N(C)C[C@H]2Oc3c(cccc3N(C)C)C(=O)N([C@H](C)CO)C[C@H]2C)cc1,0.012,-1,-4,2.0
CNC[C@H]1Oc2ccc(NC(=O)Nc3ccc(C(F)(F)F)cc3)cc2CC(=O)N([C@@H](C)CO)C[C@@H]1C,-0.15,1,1,nt
COc1ccc(NC(=O)Nc2ccc3c(c2)C(=O)N([C@@H](C)CO)C[C@H](C)[C@H](CN(C)Cc2ccc(C(F)(F)F)cc2)O3)cc1,0.27,-31,16,-0.8
O=C(CN1C(=O)c2ccccc2C1=O)Nc1ccc(NC(=O)c2ccco2)cc1,nt,nt,-8,1.4
CNC[C@@H]1Oc2ccc(NC(=O)Nc3ccccc3)cc2C(=O)N([C@H](C)CO)C[C@H]1C,0.12,nt,-4,1.1
CC(C)NC(=O)Nc1ccc2c(c1)C(=O)N([C@@H](C)CO)C[C@@H](C)[C@@H](CN(C)S(=O)(=O)c1cn(C)cn1)O2,0.52,nt,0,0.0
CC(=O)N1N=C2c3ccccc3CCC2C1c1cccs1 (stereo not drawn),-0.092,nt,27,-1.1
Cc1ccc(S(=O)(=O)Nc2ccc3c(c2)CC(=O)N([C@@H](C)CO)C[C@H](C)[C@H](CN(C)Cc2ccc(C(=O)Nc4ccccc4N)cc2)O3)cc1,-0.39,nt,20,-0.5
Cc1ccc(C(=O)CC2(O)C(=O)N(CC(N)=O)c3ccccc32)s1 (stereo not drawn),nt,nt,5,2.5
O=C(c1ccc([N+](=O)[O-])cc1)n1nc(-c2ccc(Cl)cc2)nc1NCc1ccco1,nt,nt,4,-4.4
C[C@@H]1CN([C@@H](C)CO)C(=O)c2cccc(NC(=O)C3CCOCC3)c2O[C@H]1CN(C)C(=O)Nc1ccccc1,-0.61,-2,-7,1.7
C[C@@H]1CN([C@H](C)CO)C(=O)c2cccc(NC(=O)c3ccc(-c4nccs4)cc3)c2O[C@@H]1CN(C)C(=O)Nc1ccc(F)cc1,-0.18,-5,-1,nt
C[C@@H]1CN([C@@H](C)CO)C(=O)c2cc(NS(C)(=O)=O)ccc2O[C@H]1CN(C)C(=O)Nc1ccc2c(c1)OCO2,0.32,-13,-5,nt
COC(=O)C(O)(CC(=O)Nc1ccc(OC(F)(F)F)cc1)C(F)(F)F (stereo not drawn),nt,nt,2,0.4
C[C@H]1CN([C@@H](C)CO)C(=O)c2cccc(NC(=O)Nc3ccc(C(F)(F)F)cc3)c2O[C@H]1CN(C)S(=O)(=O)c1ccccc1,-0.039,-22,-19,-2.5
C[C@@H]1CN([C@H](C)CO)C(=O)c2cc(NC(=O)Nc3ccc4c(c3)OCO4)ccc2O[C@H]1CN(C)S(=O)(=O)c1ccc(F)cc1,0.056,nt,-32,-1.5
COc1ccc(NC(=O)Nc2ccc3c(c2)CC(=O)N([C@H](C)CO)C[C@@H](C)[C@@H](CN(C)CC2CCCCC2)O3)cc1,0.2,-30,-3,0.0
C[C@@H]1CN([C@H](C)CO)C(=O)Cc2cc(NC(=O)CCC(F)(F)F)ccc2O[C@@H]1CN(C)C(=O)Nc1ccccc1,-0.2,-18,-4,1.0

# Bioassay records deposited in PubChem BioAssay by Broad Institute.
